Bfl-1 A1 inh: inhibitors of the anti-apoptotic protein A1, read as caspase activation. MEF A1-2A-BIM cells, Caspase-Glo 3/7 luminescence, 3 h; percent of clofoctol response, vehicle zero. caspase activation, % (test concentration not listed). 330,000 tested, 0.066% active. AID 2462;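 active means over half of replicate activation scores above 10%, or exactly half above 10 with the replicate mean above 10; inconclusive means replicate mean below 10 yet half the replicates above 10; inactive means over half of replicates below 10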;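 further: wells of about 30 µL received 50 nL stock; many hits fall short of the cut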
RanGTP-Imp inh: inhibitors of RanGTP-importin-beta interaction, primary screen, biochemical, FRET, CFP-Ran, YFP-importin-beta, homogeneous; cell-free CFP-Ran/YFP-importin-beta FRET ratio; inhibition, % (no concentration beside the values); 300,000 tested, 1.1% active; AID 2216;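 active means most replicates above 15%; inconclusive means exactly half above 15%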;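 further: 0% = DMSO wells and 100% = Ran loaded with GDP instead of GTP; wells of about 40 µL received 100 nL stock; the first replicate is given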
AF4-AF9 inh: blocks AF4 peptide binding to human AF9; P42568; AlphaScreen, biotin-AF4 peptide binding to FLAG-AF9; inhibition, % at 10 µM; 350,000 tested, 0.47% active; AID 651704;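 active means every replicate reaching a set inhibition limit, whatever the replicate mean, cut at about 25% in these data; inconclusive means mean inhibition reaches that limit but some replicates miss it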;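 further: 0% = plate neutral control median and 100% = total signal loss; the record names both 10 and 1 µM as test concentration; the first replicate is given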
Vif TR-FRET: HIV-1 Vif–A3G interaction blockers – biochemical, TR-FRET, GST-Vif 1-94, biotin-A3G peptide, dose response retest, primary screen (AID 1117319) | TR-FRET GST-Vif / biotin-A3G peptide binding; higher % means a stronger effect; test concentration not given here; strong numbers were not always called active | inhibition, %; hits with a dose series show IC50 in µM | 260,000 tested, 0.57% active;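 active means above the screen mean plus three standard deviations and confirmed in dose response; inconclusive means results disagree or hit not tested in dose response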;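 further: Vif residues 1-94 fused to GST binding biotinylated APOBEC3G peptide 110-148; 0% = full assay without inhibitor and 100% = GST in place of GST-Vif; retest series ran down from 100 µM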
Calb FLC: C. albicans growth modulation with fluconazole; C. albicans CaCi-2 (fluconazole-resistant clinical isolate) + fluconazole, Alamar Blue growth, 48 h; growth inhibition, % (test concentration not listed); 300,000 tested, 0.57% active;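 active means most replicates above 75%; inconclusive means exactly half above 75%; inactive means most below 75%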;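 further: all wells also contain fluconazole at 8 µg/ml as a sub-toxic cotreatment; 0% = median of DMSO wells and 100% = median of geldanamycin control wells; wells of about 8 µL received 7.5 nL stock; the first replicate is given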
T cruzi inh: T. cruzi replication inhibition; inhibition, % (no concentration beside the values); 300,000 tested, 1.4% active; T. cruzi beta-gal in NIH3T3, luminescence, 90 h;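 active means mean inhibition across valid replicates above about 55%, limit read from the data; inconclusive means mean below that limit but half or more replicates reach it; inactive means mean below it, under half of replicates reach it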;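 further: signal also drops with host cell toxicity which is not excluded here; 0% = plate median of DMSO wells and 100% = zero luminescence signal; higher percent means less beta-gal luminescence so fewer parasites; stock transfer was 50 nL into about 50 µL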
LANA-H2A inh: blocks KSHV LANA binding to histone H2A/H2B | Q9QR71 | cell-free LANA-H2A/H2B peptide, fluorescence polarization | inhibition, % (test concentration not listed) | 320,000 tested, 0.6% active; in the data active means inhibition mostly above about 10%, no sharp cut-off; inactive means mostly below about 6.7%;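 further: stock transfer was 7.5 nL into about 10 µL; 0% = median of vehicle wells and 100% = median of positive control wells; one replicate is shown; the record names a cut of 25% in any replicate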
Target sequence (Q9QR71 whole entry, looked up): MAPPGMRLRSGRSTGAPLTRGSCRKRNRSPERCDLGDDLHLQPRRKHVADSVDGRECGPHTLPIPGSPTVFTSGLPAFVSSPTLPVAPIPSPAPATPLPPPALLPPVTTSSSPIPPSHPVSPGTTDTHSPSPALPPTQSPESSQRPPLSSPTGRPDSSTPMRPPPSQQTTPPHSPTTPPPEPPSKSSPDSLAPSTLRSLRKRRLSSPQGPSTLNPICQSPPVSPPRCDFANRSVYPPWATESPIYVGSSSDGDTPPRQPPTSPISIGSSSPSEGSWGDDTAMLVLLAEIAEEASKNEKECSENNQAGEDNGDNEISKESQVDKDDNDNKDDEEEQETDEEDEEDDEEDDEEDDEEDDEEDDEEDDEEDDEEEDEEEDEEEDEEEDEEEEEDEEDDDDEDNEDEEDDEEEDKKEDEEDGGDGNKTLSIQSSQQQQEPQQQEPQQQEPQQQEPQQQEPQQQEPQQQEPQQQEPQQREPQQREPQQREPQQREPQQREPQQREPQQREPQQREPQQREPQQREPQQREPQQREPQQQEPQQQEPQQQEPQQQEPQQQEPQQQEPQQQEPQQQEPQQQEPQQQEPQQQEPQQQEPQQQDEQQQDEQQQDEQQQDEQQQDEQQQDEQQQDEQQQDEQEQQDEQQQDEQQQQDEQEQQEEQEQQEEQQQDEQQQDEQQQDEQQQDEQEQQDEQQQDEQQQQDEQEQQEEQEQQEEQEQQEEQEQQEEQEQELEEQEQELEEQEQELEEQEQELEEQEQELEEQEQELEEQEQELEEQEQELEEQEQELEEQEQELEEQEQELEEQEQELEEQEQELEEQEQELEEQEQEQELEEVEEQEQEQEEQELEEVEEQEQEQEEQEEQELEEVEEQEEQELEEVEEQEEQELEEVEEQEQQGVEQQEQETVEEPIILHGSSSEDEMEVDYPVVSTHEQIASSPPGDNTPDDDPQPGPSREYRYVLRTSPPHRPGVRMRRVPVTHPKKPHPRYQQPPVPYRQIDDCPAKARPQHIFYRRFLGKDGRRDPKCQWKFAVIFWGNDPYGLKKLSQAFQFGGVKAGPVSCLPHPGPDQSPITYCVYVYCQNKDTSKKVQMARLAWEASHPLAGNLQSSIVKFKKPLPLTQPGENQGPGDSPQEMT
Beta apoptosis: beta cell apoptosis inhibition | AID 435005 | protection from apoptosis, % (concentration not given with the values) | 300,000 tested, 0.8% active | INS-1E cytokine-induced death, ATP luminescence, 48 h; percent of positive-control rescue, neutral wells zero;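 active means all replicates at 75% or more, or half of them and the mean; inconclusive means half reach 75% but not the mean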;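 further: 0% = cytokine-treated negative control wells and 100% = positive control rescue; higher means more ATP so stronger rescue from cytokine killing; wells of about 40 µL received 100 nL stock; the first replicate is given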
An asterisk follows results filed as active; u = inconclusive; x = no result given; & = joins results of further samples.

No.	Molecule	Beta apoptosis	T cruzi inh	Calb FLC	AF4-AF9 inh	RanGTP-Imp inh	Vif TR-FRET	Bfl-1 A1 inh	LANA-H2A inh
1	O=C(COC(=O)c1cccc(C(=O)OCC(=O)NC2CCCCC2)n1)NC1CCCCC1	-2	4	0	x	2.3	-1%	0.7	-1.7
2	CC(OC(=O)CCN=C1NS(=O)(=O)c2ccccc21)C(=O)NCc1ccccc1 (stereo not drawn)	-3	-5	-2	7.7	3.9	0%	0.5	2.8
3	CC[C@H](C)C(N)c1cn(C(CCCN=C(N)N)C(=O)N2CCNCC2)nn1 (stereo partly drawn)	-4	x	x	13	x	x	-0.6	0.1
4	COc1ccc(-c2csc(Nc3ccc(C)cn3)n2)cc1	5	-25	-9	4.3	3.6	19%	-0.6	-4.0
5	COc1cccc(NC(=O)[C@@H]2CCCN2C(=O)[C@@H]2Cc3ccccc3CN2C(=O)OC(C)(C)C)c1	-3	24	1	2.3	1.5	2%	0.4	-2.1
6	C=CCN1C=C2C(=O)C(C)(OC(=O)c3ccco3)C(=O)C(C=C)=C2C=C1C1CC1 (stereo not drawn)	-13	2	18	x	1.8	x	-0.5	1.9
7	Cc1cccc(CC(=O)NCC(=O)NCc2cc(=O)n(C)c(=O)n2C)c1	-4	-7	-8	-0.8	-1.4	x	0.6	-1.5
8	CCCc1nc2ccccc2c(C(=O)OCC(=O)Nc2cccc(S(=O)(=O)N3CCOCC3)c2)c1CC	7	24	-3	x	5.2	3%	-0.4	12
9	Cc1cccc(-c2nnc(SCC(=O)N3CCCC3)o2)c1	2	-5	2	-1.9	6.4	x	0.7	4.2
10	C=CCc1c(O)c(CC)cc2c(C)cc(=O)oc12	-4	7	17	2.6	62*	u	-1.0	5.1
11	CC(=O)c1ccc2c(c1)OCCOCCOCCOCCOCCO2	-11	8	-10	-1.7	9.3	-1%	-0.6	0.2
12	Cc1sc2ncn3cnnc3c2c1C	-6	5	-4	x	6.8	-2%	-0.5	0.2
13	COC(=O)C1=C(N)Oc2cc(C)n(Cc3cccnc3)c(=O)c2C1c1ccc(OC)c(OC)c1 (stereo not drawn)	-5	12	-3	x	3.9	3%	0.3	-1.3
14	N#Cc1ccc(-c2csc(-c3ccno3)n2)cc1	-1	-4	-3	2.6	u	-46%	1.1	-4.5
15	O=C(CCc1ccccc1)N/N=C/c1cc(Br)ccc1O	9	-9	-9	4.6	0.7	28%	-0.3	1.6
16	C/C(=N\NC(=O)CC1N=C(Cc2ccccc2)NNC1=O)c1ccc(Br)cc1 (stereo not drawn)	-1	-7	-6	-1.5	1.4	-1%	0.0	-5.3
17	CS(=O)(=O)N(CCc1ccccc1)CC(=O)NCc1ccccc1	-10	2	0	-3.6	u	-5%	-0.4	0.9
18	CC(=O)c1cccc(NC=C2C(=O)OC3(CCCCC3)OC2=O)c1	-7	-2	-20	x	0.0	-3%	-0.9	-5.0
19	CC(=O)N1CCN2C(=O)C1CCCC(=O)c1cc(C)ccc12 (stereo not drawn)	-1	-5	1	x	1.0	-8%	0.1	0.8
20	Cc1cccc(C(=O)NC(CC(=O)O)c2ccc(OC3CCCC3)cc2)c1[N+](=O)[O-] (stereo not drawn)	-3	-18	-9	-3.8	-3.9	1%	-1.2	0.2
21	COc1ccccc1C(=O)Nc1ccnn1C1CCN(Cc2cc(C)c(C)cc2C)CC1	15	43	5	6.1	u	x	-0.9	1.0
22	Cc1ccc(C(=O)N/C(=C\c2cccs2)C(=O)NC2CCCCC2)cc1	-1	8	5	4.3	3.3	-2%	-0.8	0.8
23	CCCN1CCN(CCCNC(=O)C(CC)n2nc(C)c3sc4ccccc4c3c2=O)CC1 (stereo not drawn)	0	-25	-2	4.2	3.9	x	0.8	2.8
24	CCc1sc(C(=O)Nc2ccccc2N2CCOCC2)cc1C	2	-5	-20	-2.2	-1.4	-5%	-0.3	1.7
25	COc1ccc(NC(=O)c2ccc(NC(=O)CN3CCN(c4ccccc4)CC3)cc2)cc1	-6	x	x	-0.8	x	x	-0.4	-3.3
26	OCCN1CCN(c2nc(NCc3ccco3)c3ccccc3n2)CC1	-1	12	11	x	4.2	-8%	-0.2	0.4
27	Cc1ccc(-n2nc3c(=O)n(CC(=O)NCc4ccccn4)nc(C)c3c2C)cc1	-4	8	4	-3.3	-0.4	x	0.5	2.9
28	C[C@H](CO)N1C[C@H](C)[C@@H](CN(C)Cc2ccccc2)Oc2c(NC(=O)C3CC3)cccc2C1=O	-10	x	x	1.7&-0.2	x	x	-0.2	-6.4
29	COc1ccc(/C=N/Nc2nc(-c3cccc(S(=O)(=O)N4CCCC4)c3)cs2)c(OC)c1	3	43	-1	9.6	-1.9	x	0.3	6.2
30	O=C(c1cn(CC(=O)N2CCCCC2)c2ccccc12)C1CC1	-1	-2	-12	x	u	1%	0.1	3.2
31	Cc1ccc(N(C(C)C(=O)N2CCCCC2)S(C)(=O)=O)cc1C (stereo not drawn)	-7	-9	4	x	8.2	-3%	-0.2	1.3
32	O=C(COC(=O)c1ncc(Cl)c(Cl)c1Cl)Nc1ccccc1OC(F)F	-8	-19	7	-1.4	4.8	u	-0.3	-1.3
33	O=C(c1nn2c(C(F)(F)F)cc(-c3cccs3)nc2c1Br)N1CCCc2ccccc21	16	36	23	x	-3.5	-115%	0.8	-3.4
34	CS(=O)(=O)Nc1ccc(S(=O)(=O)N2CCCC2)cc1	-6	-12	2	-3.0	-2.6	u	-0.4	5.6
35	CSCCC(NS(=O)(=O)c1cccc(C(F)(F)F)c1)C(=O)N(C)Cc1ccc2c(c1)OCCO2 (stereo not drawn)	0	7	1	0.9	0.0	x	0.6	2.8
36	Cc1c(Cl)cccc1NC(=O)Nn1cnnc1	-3	3	-17	-0.7	2.9	x	1.8	0.8
37	CCn1c(C)c(C(C)=O)c(N2CCN(c3ccccn3)CC2)nc1=S	-2	-7	4	1.9	45*	-2%	0.9	1.4
38	COc1cc(CC(=O)OCC(=O)c2ccc3c(c2)OCCO3)cc(OC)c1OC	39	17	4	x	1.1	1%	0.9	-0.6
39	COc1cc(OC)cc(C(=O)NNC(=O)c2ccc(S(=O)(=O)N3CC(C)OC(C)C3)cc2)c1 (stereo not drawn)	2	-6	-12	-5.3	-1.2	-12%	-0.3	2.5
40	CCc1cc(/C(Cc2ccc3ccccc3n2)=N\O)c(O)cc1O	1	-4	22	x	3.1	0%	0.5	0.2
41	S=C(c1c[nH]c2ccccc12)N1CCCC1	-3	-6	6	0.8	-1.7	x	-1.2	10
42	O=C(Nc1ncc(Cc2cccc(Cl)c2)s1)c1ccc([N+](=O)[O-])cc1	x	13	1	x	0.3	31%	0.8	0.0
43	COC(=O)C1CSC(C(=O)OC)N1C(=O)CN1CCN(c2ccccc2)CC1 (stereo not drawn)	-1	-3	-2	-3.3	x	10%	-0.6	2.6
44	O=C(c1cc(-c2ccc(Cl)cc2)n[nH]1)N1CCN(C(=O)c2ccco2)CC1	0	-2	-1	0.3	-0.9	-4%	0.1	-1.4
45	Cc1cccc(C(=O)NCCC(=O)NCc2ccccc2F)c1	-1	x	x	-0.5	x	x	-0.9	-117
46	CCN(CC)C(=O)CSc1nc2ncc(Cl)cc2[nH]1	-5	-11	-7	x	-0.3	2%	1.2	1.4
47	CCOC(=O)CNC(=O)C12CC3CC(CC(C3)C1)C2	-12	7	-19	-1.2	-1.2	-4%	0.3	8.4
48	Cc1ccc(S(=O)(=O)Nc2csc(C)c2C(=O)O)cc1	-13	-4	0	-9.5	-1.4	x	0.0	-3.9
49	COc1cccc(C(=O)C2=NN(C(C)=O)CC2c2ccco2)c1 (stereo not drawn)	-9	-5	4	4.8	-0.9	x	-0.1	0.3
50	O=C(CCCc1c[nH]c2ccccc12)N1CCCCCC1	-1	6	-1	x	2.7	-1%	0.0	-2.7
51	Cn1c(=O)c2c(ncn2CC(=O)Nc2nc(-c3ccccc3Cl)cs2)n(C)c1=O	-1	-17	8	x	-3.6	7%	-0.2	2.8
52	CC(C)c1ccccc1OCC(O)CN1CCN(S(=O)(=O)c2ccc([N+](=O)[O-])cc2)CC1 (stereo not drawn)	1	55*	12	8.6	0.5	3%	1.0	4.1
53	COc1ccc(CSc2nnnn2Cc2ccccc2)cc1OC	-5	-1	3	x	u	u	0.2	0.1
54	CSc1nc(O)c(Nc2cccc(Cl)c2)c(=O)[nH]1	-2	-4	-6	-5.9	-5.2	-7%	0.2	-12
55	CS(=O)(=O)N1CCN(c2ccccc2NC(=O)Cc2ccc(Cl)cc2)CC1	-14	17	7	x	1.0	13%	0.9	3.6
56	Cn1c(SCC2CCCCC2)nnc1-c1ccncc1	-2	28	2	x	-2.0	28%	-1.6	-1.6

The list continues.
No.	Molecule	Beta apoptosis	T cruzi inh	Calb FLC	AF4-AF9 inh	RanGTP-Imp inh	Vif TR-FRET	Bfl-1 A1 inh	LANA-H2A inh
57	Nc1cc2nsnc2cc1Br	52	-14	-5	x	-10.0	-4%	0.1	-1.0
58	O=C(Oc1cccnc1)c1cc2ccccc2oc1=O	-2	-21	-24	x	-1.0	2%	0.0	-0.7
59	CC1(C)Cc2c(sc(NC(=O)COc3ccc(Cl)cc3Cl)c2C(N)=O)C(C)(C)N1	14	18	45	-1.1	u	x	0.7	-6.8
60	O=C(CSc1nc(O)cc(=O)n1-c1ccccc1)NCc1ccccc1	-10	-13	15	x	-2.8	4%	-0.1	1.7
61	O=C(C1=NN[C@@H]2C(=O)N(Cc3ccccc3)C(=O)[C@H]12)c1ccc([N+](=O)[O-])cc1	-5	-9	-2	x	3.3	1%	0.0	-4.2
62	Cc1ccc(N2C(=O)c3ccccc3C2=O)nc1	-9	-7	4	0.5	-1.6	3%	-0.1	0.1
63	CCOc1ccc(-n2c(SCc3ccc([N+](=O)[O-])cc3)nnc2-c2ccc(OC)cc2)cc1	24	50	15	7.9	-7.0	x	0.9	-4.5
64	CCNc1c(NC(=O)COc2ccc(Cl)cc2)c(=O)oc2ccccc12	x	-8	6	3.2	0.0	2%	-0.8	0.1
65	O=C1/C(=C\c2ccco2)SC(=S)N1c1ccccc1	1	-24	-12	x	u	2.6µM*	1.0	-2.4
66	COc1ccc(C2=NOC(C(=O)Nc3ccc4c(c3)OCCO4)C2)c(OC)c1 (stereo not drawn)	-2	20	2	0.3	-8.7	-1%	0.1	-1.8
67	CC1(C)Cc2nc3sc4c(NCCO)ncnc4c3cc2CS1	5	-6	-3	x	4.9	-5%	-0.7	3.2
68	CC(C)c1nc2ccccn2c1NC1CCCCC1	3	-14	-4	x	-3.4	4%	1.8	0.7
69	O=C(CN1C(=O)c2ccccc2C1=O)NCCc1c[nH]c2ccc(Cl)cc12	-9	10	-11	1.1	0.4	x	0.6	-3.4
70	O=C(NC1CCN(C(=O)NC2CCCCC2)CC1)c1cccc(F)c1	6	-13	9	-1.7	-3.5	2%	0.0	-0.9
71	CN(C)S(=O)(=O)Nc1cc(Cl)cc(Cl)c1	x	8	7	-3.9	2.3	11%	0.7	-2.2
72	CCN(CC)S(=O)(=O)c1ccc(N2CCCC2)c(NC(=O)c2ccc(OC)cc2OC)c1	-3	u	11	2.4	0.5	25%	0.0	6.4
73	N#Cc1ccc(OCC(=O)N2CCc3ccccc32)cc1	-4	x	x	-3.1	x	x	-3.6	-1.8

Screening results deposited in PubChem by several laboratories.
